# Screens (PubChem)
# D2 ag: Beta-Arrestin HTS for Positive Allosteric Modulators of the Human D2 Dopamine Receptor: Agonists; D(2) dopamine receptor (Homo sapiens), P14416; DiscoveRx PathHunter D2 beta-arrestin, luminescence, 90 min; 100% = 57 uM dopamine signal; activation, % (no concentration beside the values); hit rate 0.084% among 360,000; AID 624465, 2012; in the data active = activation above about 40%; inconclusive = about 15% to 40%; inactive = below about 15%; note: compound concentration not given in the record; the text of the record calls up to 30% inactive
# Target sequence (P14416 whole entry, looked up): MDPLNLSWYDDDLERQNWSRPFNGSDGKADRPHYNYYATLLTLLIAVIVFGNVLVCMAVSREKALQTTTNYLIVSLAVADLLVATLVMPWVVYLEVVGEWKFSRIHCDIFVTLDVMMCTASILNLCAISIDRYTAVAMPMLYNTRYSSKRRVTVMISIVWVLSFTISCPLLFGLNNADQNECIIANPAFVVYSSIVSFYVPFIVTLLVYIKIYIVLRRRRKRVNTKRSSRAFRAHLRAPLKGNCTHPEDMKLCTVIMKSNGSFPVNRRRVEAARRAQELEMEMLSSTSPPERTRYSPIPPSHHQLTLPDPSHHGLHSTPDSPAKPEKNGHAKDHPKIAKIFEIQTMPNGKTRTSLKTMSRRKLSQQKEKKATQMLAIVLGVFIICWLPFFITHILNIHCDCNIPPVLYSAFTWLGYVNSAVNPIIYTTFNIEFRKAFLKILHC
#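 Agonist mode: compounds alone added to overnight-plated D2 PathHunter cells for 90 min at 37 C, with 57 uM final dopamine (EC100) defining full response. Beta-arrestin recruitment detected by chemiluminescent reagent, read after 1 h at ambient temperature.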
# gsp antag: qHTS for Antagonists of gsp, the Etiologic Mutation Responsible for Fibrous Dysplasia/McCune-Albright Syndrome: qHTS. gsp-mutant cells, cAMP HTRF, 30 min; control for the full effect not named in the record. Potency, µM (titrated, usually from 76.9 µM), for inactives: at the highest dose activity change, negative = inhibition, most hits filed as inhibitors. hit rate 0.4% among 340,000. AID 624288, 2012; active = falling curve of any shape with a large fitted effect; inconclusive = falling curve, mostly with a smaller effect; inactive = flat or rising curve; cell line not stated here;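 note: intracellular cAMP measured with PDE inhibitor Ro 20-1724 present during compound exposure; potency is the fitted concentration of half-maximal effect; % is set by controls: 0 for no effect and ±100 for the full control effect; nearly all actives have a fitted effect of over 65% in size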
#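 G418-selected cells were plated in DMEM/10% FBS for 16-24 h at 37C, then treated with compounds plus the PDE inhibitor […] (300 uM solution added) for 30 min at 37C. Intracellular cAMP was measured by HTRF after 30 min lysis at room temperature.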
# CtBP-E1A inh: qHTS Assay for Inhibitors of the CtBP/E1A Interaction; CtBP / adenovirus E1A interaction (AlphaScreen); hit rate 0.49% among 340,000; activity change, % (concentration not given with the values); AlphaScreen GST-E1A/His-CtBP binding, 1536-well; stronger effect = lower value; control for the full effect not named in the record; in the data active means activity change below about -65%; inconclusive means about -30% to -65%; inactive means above about -30%; note: % is set by controls: 0 for no effect and ±100 for the full control effect
#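 Protein mix (5X: 125 nM each GST-E1A, His-CtBP) was incubated with pinned compound 2 h at 37 deg C in dark, in 50 mM Tris pH 8.0 buffer with 300 mM NaCl. Glutathione donor and nickel acceptor beads followed; AlphaScreen signal read after 1 h.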
# D2 potentiator: Beta-Arrestin HTS for Positive Allosteric Modulators of the Human D2 Dopamine Receptor: Potentiators. potentiation, % (no concentration beside the values). hit rate 0.23% among 360,000. AID 624464, 2012. DiscoveRx D2 beta-arrestin cells, luminescence, 90 min; 100% = 57 uM dopamine signal. D(2) dopamine receptor (Homo sapiens), P14416; active = potentiation of 50% or more; inconclusive = 30% to 50%; inactive = 30% or less;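 note: compound concentration not given in the record; tested on top of an EC20 dose of dopamine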
#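 PathHunter beta-arrestin assay in DiscoveRx D2 cells. Compounds were added with an EC20 of dopamine (50 nM final) for 90 min at 37 deg C. Luminescence was read 1 h after detection reagent, with 57 uM dopamine as the EC100 control.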
# Six1-Eya2 blk: qHTS Assay for Inhibitors of the Six1/Eya2 Interaction; Homeobox protein SIX1 (Homo sapiens) + Protein phosphatase EYA2 (Homo sapiens), …; AlphaScreen GST-Six1/His-Eya2 binding, biochemical; stronger effect = lower value; control for the full effect not named in the record; activity change, % (no concentration beside the values); hit rate 0.56% among 360,000; AID 651725, 2012; in the data active = activity change below about -65%; inconclusive = about -30% to -65%; inactive = above about -30%; note: % is set by controls: 0 for no effect and ±100 for the full control effect; compound concentration not given in the record
#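 Homogeneous AlphaScreen proximity assay pairing GST-Six1 with His-tagged Eya2 (added as 5X mix: 250 nM and 500 nM) in 50 mM Tris pH 8.0, 300 mM NaCl, 1 mM TCEP. Glutathione donor and nickel acceptor beads; 1 h, 37 °C, dark.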
# gsp ag: qHTS for Agonist of gsp, the Etiologic Mutation Responsible for Fibrous Dysplasia/McCune-Albright Syndrome: qHTS; hit rate 0.13% among 340,000; AID 624287, 2012; gsp mutant cells, cAMP HTRF, 30 min; control for the full effect not named in the record; Potency, µM (highest dose often 76.9 µM), for inactives: at the top dose activation (cAMP increase), usual class: activators; active = well fitted activation curve with a large enough effect; inconclusive = small, poorly fitted or top-dose-only effect, or another doubt; inactive = no such curve, though single readings can be large or run the other way; cell line not stated here;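 note: phosphodiesterase inhibitor Ro 20-1724 added with compounds to block cAMP breakdown; potency is the fitted concentration of half-maximal effect; nearly all actives have a fitted effect of over 60% in size; about a fifth of the inactives were tested at one dose only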
#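 Cells stably selected in G418 were plated at 2000/well, grown 16-24 hr, then given compounds in DMSO with the PDE inhibitor […] (300 uM solution added) for 30 min at 37C; cAMP was read by HTRF.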
# Numbers without * were called inactive; u = inconclusive; x = no result given; [ ] = another dose, or the depositor's remark.
Molecule	D2 ag	gsp antag	CtBP-E1A inh	D2 potentiator	Six1-Eya2 blk	gsp ag
O=C(O)CCC(=O)OC1CC2CCC1C2 (stereo not drawn)	-1.5	0%	7	0	0	-9%
CCN(CC(=O)Nc1ccccc1C(F)(F)F)C(=O)c1ccc2c(=O)n3c(nc2c1)CCC3	0.7	3%	6	2	3	-2%
CC(C)CCNC(=O)C1CCCN(S(=O)(=O)c2ccc(-n3cnnn3)cc2)C1 (stereo not drawn)	-3.1	9%	-16	-3	-1	1%
CCOC(=O)CSc1nc2ccccc2n1CC(=O)NC(C)(C)C	-0.9	-8%	8	-9	1	4%
CCC1CCCCN1CCCNC(=O)c1csc2c1CCCCC2 (stereo not drawn)	0.8	3%	x	-17	-5	17%
Cc1ccc(CN2CCC[C@]3(N[C@H](c4ccc(C)cc4)[C@@H]4C(=O)N(C)C(=O)[C@@H]43)C2=O)cc1	-6.8	x	-15	-12	-16	-108%[inhibitor]
CCOc1cc(CNC(=O)CCCn2c(=O)c3cccn3c3cccnc32)cc(OCC)c1OCC	0.1	-16%	x	2	-8	-30%[inhibitor]
Cc1ccccc1NC(=S)N(CCCN1CCCCC1)Cc1ccco1	0.2	14%	3	-8	-18	6%[15.4 µM]
Cc1csc(NC(=O)CSc2nc(=O)cc(N)n2-c2ccc(F)cc2)n1	8.8	21%	-12	-6	9	22%
O=C(O)c1ccc(C(=O)C(=O)c2ccccc2)cc1	-3.9	-25%	2	-1	-1	13%[15.4 µM]
CCC1(C)Cc2c(C#N)c(N)n(-c3ccccc3)c(=O)c2CO1 (stereo not drawn)	0.6	8%	-3	-8	6	-4%
Cc1ccsc1/C=C(\C#N)C(=O)Nc1c(C)n(C)n(-c2ccccc2)c1=O	-9.9	6%	11	-9	7	4%
CCOC(=O)CCC(NC(=O)CCCC(=O)NC(CCC(=O)OCC)C(=O)OCC)C(=O)OCC (stereo not drawn)	1.1	4%	1	-20	12	-3%
Cc1sc2ncn(CC(=O)N(C)C3CCCCC3)c(=O)c2c1C	-1.4	2%	5	-4	0	2%[15.4 µM]
CCC(=O)NC(Nc1ccccn1)(C(=O)OC)C(F)(F)F (stereo not drawn)	-0.5	24%	9	1	2	-40%[inhibitor]
COC(=O)Cn1c2ccccc2c2nc3ccccc3nc21	-5.9	-11%	-3	-8	19	0%[15.4 µM]
CC1=C/C(=C\c2ccc(Br)o2)C(=O)O1	-1.1	8%	-2	-9	-27	0%
CCC(C)(C)n1nnnc1C(c1cc(OC)ccc1OC)N1CCN(Cc2ccccc2)CC1 (stereo not drawn)	-0.7	-2%	-10	-20	-7	-3%
CC12CCC(C(=O)NCc3ccccc3Cl)(OC1=O)C2(C)C (stereo not drawn)	1.3	1%	x	4	10	-4%
O=C(Nc1ccccc1)c1ccsc1	-0.7	10%	0	-10	3	4%
CC#CCCCC(=O)Nc1cc(OC)nc(OC)n1	2.8	2%	8	5	0	-11%
Cc1sc(NC(=O)CSc2nnc(C)c(=O)[nH]2)c(C#N)c1C	-1.7	-16%	-10	-4	-3	-6%
CSc1nc2ccc(NC(=O)CSc3nnc(N)s3)cc2s1	-0.1	-18%	-3	1	-9	-9%
CN(C)c1cccc2c1c(NS(=O)(=O)c1cn(C)cn1)nn2C	u	-17%	3	22	-7	u
COc1cccc(CNC(=O)CCCC(=O)Nc2cccc([N+](=O)[O-])c2)c1	-1.0	-20%	6	-5	-7	u
CC1(C)Cc2c(sc3nc(SCC(=O)NCc4ccccc4)n(-c4ccccc4)c(=O)c23)CS1	-3.4	0%	1	-9	2	-20%
CCN(CC)S(=O)(=O)c1csc(C(=O)NCc2ccccc2)c1	-3.3	-7%	-1	2	-6	-17%
O=c1cc(-c2ccccc2Cl)oc2c(Br)ccc(O)c12	-1.6	-6%	x	-2	-12	7%
CCCOC(=O)C(C)Sc1n[nH]c(=O)[nH]c1=O (stereo not drawn)	-4.4	4%	9	-1	4	21%
CCOC(=O)C1CCN(C(=O)c2ccc3c(c2)NC(=O)/C(=C/c2ccccc2)S3)CC1	-2.9	-19%	-2	-22	0	u

# 3 compounds out of the list above, sorted by the number in D2 ag, smallest number first:
Molecule	D2 ag	gsp antag	CtBP-E1A inh	D2 potentiator	Six1-Eya2 blk	gsp ag
Cc1sc(NC(=O)CSc2nnc(C)c(=O)[nH]2)c(C#N)c1C	-1.7	-16%	-10	-4	-3	-6%
COc1cccc(CNC(=O)CCCC(=O)Nc2cccc([N+](=O)[O-])c2)c1	-1.0	-20%	6	-5	-7	u
CC#CCCCC(=O)Nc1cc(OC)nc(OC)n1	2.8	2%	8	5	0	-11%

# Following part.
Molecule	D2 ag	gsp antag	CtBP-E1A inh	D2 potentiator	Six1-Eya2 blk	gsp ag
C=CCn1c(SCc2cccc3ccccc23)nnc1-c1cccnc1	-2.3	-13%	1	-10	-1	-48%[inhibitor]
O=C(CN1N=C(c2ccc(Cl)cc2)CCC1=O)NCc1cccnc1	-4.5	-8%	2	-17	-2	-1%
COC(=O)CCNC(=O)c1nn(Cc2ccccc2)c(=O)c2ccccc12	1.8	7%	-8	-1	-1	-4%[15.4 µM]
O=C(O)Cn1nc(C(F)(F)F)c2c1CCC2	0.6	8%	7	2	1	16%
Clc1cccc(CSc2ccc(-c3cccnc3)nn2)c1	2.5	-2%	1	3	15	19%[15.4 µM]
CC(=O)c1cc2c(cc1C)CCCC2(C)C	0.5	3%	3	-7	5	9%
COc1nc(Oc2ccc(=O)n(C)n2)nc(N(C)C)n1	-4.3	10%	3	7	-4	19%
CSc1ncc(CN2CCCC(C(=O)Nc3ccc(-c4ccco4)cc3)C2)cn1 (stereo not drawn)	3.2	-16%	x	-13	-20	-5%
Cc1cc(Cl)ccc1OC(C)C(=O)Nc1cccc(S(=O)(=O)N2CCOCC2)c1 (stereo not drawn)	1.0	x	-7	-13	-3	24%
N#Cc1c(-c2ccccc2)nc(SCc2cccc(C(F)(F)F)c2)[nH]c1=O	-0.4	50µM*	x	-41	4	u

# Single records (already shown). Order of values: D2 ag, gsp antag, CtBP-E1A inh, D2 potentiator, Six1-Eya2 blk, gsp ag
# `COc1nc(Oc2ccc(=O)n(C)n2)nc(N(C)C)n1` is listed with -4.3, 10%, 3, 7, -4, 19%
# `N#Cc1c(-c2ccccc2)nc(SCc2cccc(C(F)(F)F)c2)[nH]c1=O` is listed with -0.4, 50µM*, x, -41, 4, u

# Remaining list, next part.
Molecule	D2 ag	gsp antag	CtBP-E1A inh	D2 potentiator	Six1-Eya2 blk	gsp ag
O=C(Nc1ccsc1C(=O)NC1CCCCC1)c1ccccc1	0.1	3%	2	-12	2	-5%
COCCCNC(=O)c1ccccc1C(F)(F)F	-4.0	11%	6	2	1	-35%[inhibitor]
Cc1c(NC(=O)C(C)OC(=O)c2ccc([N+](=O)[O-])s2)c(=O)n(-c2ccccc2)n1C (stereo not drawn)	-0.9	8%	-14	-4	3	-5%
CCOC(=O)c1c(C)nc(C)c(C(=O)OCC)c1-c1ccco1	-4.0	6%	-2	-5	-19	7%[15.4 µM]
CCC(=O)N(c1nnc(SC(C)C(=O)Nc2ccc(N3CCOCC3)cc2)s1)C1CC1 (stereo not drawn)	-2.5	x	0	-11	-10	u
OCCN1CCN(CCOc2ccccc2-c2ccccc2)CC1	-3.5	8%	5	-26	-3	-30%
CC(=O)Nc1ccc(C2=CC(=O)CC(C)(C)C2)cc1	-10	5%	7	-7	2	-33%[inhibitor]
N=c1n(CC(=O)c2ccc([N+](=O)[O-])cc2)c2ccccc2n1Cc1ccccc1Cl	-4.4	8%	-10	18	11	-37%[inhibitor]
COc1ccc(OC)c(NC(=O)c2ccc3c(c2)C(=O)N(c2ccc(OC(C)=O)cc2)C3=O)c1	-6.2	0%	3	-1	1	3%
COc1ccc2[nH]c(=O)c(CN(Cc3nnnn3CCc3ccccc3)CC3CCCO3)cc2c1 (stereo not drawn)	1.5	0%	-1	-1	-3	-46%[inhibitor]
CCc1cccc(NC(=O)[C@@H]2CCCN2C2=NS(=O)(=O)c3ccccc32)c1	9.2	3%	1	-2	8	-18%
COc1ccc(NC(=O)CCN2C(=O)/C(=C/c3ccc4c(c3)OCO4)SC2=S)cc1	-0.3	4%	11	-4	0	-16%[15.4 µM]
COc1ccc(OC)c2[nH]c(=O)c(CCNC(C)=O)cc12	1.8	-1%	1	-2	-7	-3%
CC(=O)c1cccc(NC(=O)c2ccc(C(=O)Nc3cccc(C(C)=O)c3)nc2)c1	0.6	7%	3	-6	6	14%[15.4 µM]
S=c1[nH]nc(-c2ccccc2)n1Cc1ccccc1	-3.3	-12%	-2	-19	-1	u
O=C(NCc1csc(-c2cccs2)n1)c1cccc(Cl)c1	0.3	-13%	-21	-5	-2	-4%[15.4 µM]
O=C1CCCC2=C1C(c1ccsc1)CC(=O)N2c1ccccc1F (stereo not drawn)	2.0	17%	6	-2	2	0%
OC(CNCCCN1CCCCC1)COc1ccccc1 (stereo not drawn)	-0.1	-8%	-5	-8	16	0%
C=CCc1ccccc1Oc1cc(OC)nc(N)n1	2.1	3%	-1	-3	-4	3%[15.4 µM]
CN(C)CCCNC(=S)N(CCO)Cc1cc2cc3c(cc2[nH]c1=O)OCO3	-6.3	3%	5	-3	-6	4%
